# Menin-MLL FL inh = inhibitors of human menin-MLL interaction, wild-type MLL peptide; FP activity change, % at 61.4 µM; AID 1766; Fluorescence polarization, fluorescein-MLL peptide displacement from menin; 290,000 tested, under 10 active; inconclusive = falling polarisation curve, or a change in total fluorescence; inactive = total fluorescence flat and polarisation flat or rising; no compound was filed as active; the % refers to the polarisation; negative = inhibition;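 note: % of control where 0% means no effect; inhibitors lower the polarisation; unlabelled MLL peptide was the positive control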
# Sfp inh = inhibitors of Bacillus subtilis Sfp phosphopantetheinyl transferase; Q9F4F7; Biochemical Sfp PPTase activity, qHTS; Potency, µM, for the others: max response, negative = inhibition, most hits filed as inhibitors; hit rate 3.5% among 310,000; AID 1490; active = well fitted inhibition curve with a large enough effect; inconclusive = small, poorly fitted or top-dose-only effect, or another doubt; inactive = no such curve, though single readings can be large or run the other way;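 note: the enzyme is Sfp with the accession as filed and its product quenches rhodamine fluorescence; potency is the fitted concentration of half-maximal effect; 0% = enzyme reaction without inhibitor and -100% = no enzyme wells; top concentration of the series not given in the record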
#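 Step 1, compound plus 15 nM Sfp-PPTase, 15 min, room temperature. Step 2, add rhodamine-CoA (5 uM) and BHQ-2-YbbR (12.5 uM). Step 3, read 525/598 nm fluorescence at 0 and 30 min.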
# TRPV1 PAM = potentiators of human vanilloid receptor 1 (TRPV1); Q8NER1; TRPV1-expressing cells, Fluo-8 calcium influx, capsaicin EC20 potentiation; host cell line not named in the record; control for the full effect not named in the record; potentiation, % at 8.33 µM; hit rate 0.02% among 320,000; AID 540277; active means potentiation above 80%; inconclusive means 30% to 80%; inactive means below 30%; note: 0% is about no effect
#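 Cells expressing TRPV1 were dye-loaded with Fluo-8 and read kinetically: 10 s baseline, 3 min after compound (agonist portion), then 2 min after EC20 capsaicin (allosteric enhancer portion). Calcium-bound dye fluorescence at 480/520 nm.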
# TRPML1 inh = inhibitors of human TRPML1 channel | TRPML1-inducible cells, Ca2+ dye fluorescence, FDSS; hits give low values; inhibition of EC80 agonist-evoked calcium signal | activity change, negative = inhibition, % (concentration not given with the values) | hit rate 0.02% among 390,000; in the data active means activity change below about -50%; inconclusive means about -30% to -50%; inactive means above about -30%;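 note: stimulus is agonist 54-4 at its EC80 concentration; % is set by controls: 0 for no effect and ±100 for the full control effect; compound concentration not given in the record; the text of the record puts the active cut at -80%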
# Target sequence (Q9GZU1 whole entry, looked up): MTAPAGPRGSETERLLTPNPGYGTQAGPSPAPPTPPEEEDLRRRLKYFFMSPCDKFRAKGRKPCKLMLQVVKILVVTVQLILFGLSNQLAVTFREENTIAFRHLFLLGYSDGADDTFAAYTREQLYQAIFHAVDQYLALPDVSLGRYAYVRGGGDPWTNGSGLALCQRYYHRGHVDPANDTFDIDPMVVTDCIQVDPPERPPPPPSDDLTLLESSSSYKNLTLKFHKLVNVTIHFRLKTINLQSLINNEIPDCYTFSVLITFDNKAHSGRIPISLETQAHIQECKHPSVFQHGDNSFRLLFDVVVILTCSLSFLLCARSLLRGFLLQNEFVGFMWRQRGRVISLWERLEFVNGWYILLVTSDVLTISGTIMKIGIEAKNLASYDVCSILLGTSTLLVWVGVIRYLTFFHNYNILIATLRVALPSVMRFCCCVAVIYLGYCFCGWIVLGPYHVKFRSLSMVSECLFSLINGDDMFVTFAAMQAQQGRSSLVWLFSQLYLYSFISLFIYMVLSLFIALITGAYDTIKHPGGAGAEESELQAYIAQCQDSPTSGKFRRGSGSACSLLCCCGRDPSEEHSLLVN
#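 TRPML1-DL cells, Tet-induced overnight (~16 h, 37 °C) at 1,500 cells/well, were loaded with Ca8 no-wash dye plus quencher for 45-90 min at room temperature. Compounds were pinned during FDSS kinetic reading; agonist 54-4 at EC80 (4 uM final) then added.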
# gsp antag = antagonists of gsp mutant (McCune-Albright syndrome); AID 624288; Potency, µM (doses to about 76.9 µM), for the others: at the top dose activity change, negative = inhibition, hits mostly inhibitors; gsp-mutant cells, cAMP HTRF, 30 min; control for the full effect not named in the record; hit rate 0.4% among 340,000; active = falling curve of any shape with a large fitted effect; inconclusive = falling curve, mostly with a smaller effect; inactive = flat or rising curve; cell line not stated here;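 note: intracellular cAMP measured with PDE inhibitor Ro 20-1724 present during compound exposure; potency is the fitted concentration of half-maximal effect; % is set by controls: 0 for no effect and ±100 for the full control effect; nearly all actives have a fitted effect of over 65% in size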
#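 Cells in G418 medium, seeded 16-24 h, 37C; buffer exchange to DPBS + 1 mM CaCl2, 0.5 mM MgCl2, 0.05% BSA; cpds in DMSO + […] (300 uM stock), 30 min 37C; HTRF cAMP detection.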
# ClpP mod = qHTS Assay for Activators of ClpP | ATP-dependent Clp protease proteolytic subunit (Bacillus subtilis (strain 168)), P80244 | purified B. subtilis ClpP, FRET peptide cleavage, 20 min | Potency, µM (highest dose often 57.5 µM), for the others: top-dose activity change, negative = active | hit rate 1.9% among 340,000; active = well fitted falling curve with a large enough effect; inconclusive = small, poorly fitted or top-dose-only effect; inactive = no such curve, though single readings can be large or run the other way; note: potency is the fitted concentration of half-maximal effect; the source files actives as falling curves though it sought activators and does not explain the sign; nearly all actives have a fitted effect of over 65% in size; many hits overshoot -100%
# Target sequence (P80244 whole entry, looked up): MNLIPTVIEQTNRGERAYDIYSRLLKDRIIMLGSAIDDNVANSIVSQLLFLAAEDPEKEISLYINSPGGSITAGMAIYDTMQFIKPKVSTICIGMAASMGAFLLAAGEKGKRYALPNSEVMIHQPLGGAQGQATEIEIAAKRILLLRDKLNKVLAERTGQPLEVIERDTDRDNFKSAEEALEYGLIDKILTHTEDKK
#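 FRET quenching reversal measured ClpP activation: 10 microg/mL B. subtilis ClpP at pH 8 with the FRET-FV decapeptide, read at 430 nm after 320 nm excitation. The 20-min minus 0-min signal was scaled between DMSO/no-enzyme wells and ADEP (5.8 microM final).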
# gsp agonist = agonists of gsp mutant (McCune-Albright syndrome) | gsp mutant cells, cAMP HTRF, 30 min; control for the full effect not named in the record | Potency, µM (titrated, usually from 76.9 µM), without a hit: at the top dose activation (cAMP increase), hits mostly activators | hit rate 0.13% among 340,000 | AID 624287; active = well fitted activation curve with a large enough effect; inconclusive = small, poorly fitted or top-dose-only effect, or another doubt; inactive = no such curve, though single readings can be large or run the other way; cell line not stated here;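 note: phosphodiesterase inhibitor Ro 20-1724 added with compounds to block cAMP breakdown; potency is the fitted concentration of half-maximal effect; nearly all actives have a fitted effect of over 60% in size; about a fifth of the inactives were tested at one dose only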
#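 Cells stably selected in G418 were plated at 2000/well, grown 16-24 hr, then given compounds in DMSO with the PDE inhibitor […] (300 uM solution added) for 30 min at 37C; cAMP was read by HTRF.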
# Numbers without * were called inactive; ? = inconclusive; . = not tested or not shown; [ ] = dose if it differs, or a comment.
molecule,Menin-MLL FL inh,Sfp inh,TRPV1 PAM,TRPML1 inh,gsp antag,ClpP mod,gsp agonist
Cc1cc(Br)ccc1NC(=O)CN1C(=O)C2C3CC(c4ccccc4)C(C3)C2C1=O (stereo not given),6.8,25%,9,-1,-12%,0.8%,-91%[inhibitor]
COc1ccc(CN(CC2CCCO2)S(=O)(=O)c2ccc(C(=O)O)cc2)cc1OC (stereo not given),1.6,1%,0,-3,-4%,0.7%,-2%
O=C(Nc1ccccc1C(=O)N1CCOCC1)c1ccco1,-1.6,5%,-6,-12,1%,-1.1%,-6%
CCOc1ccc2nc(SC(CC)C(=O)Nc3cc(C)on3)sc2c1 (stereo not given),-0.1,10%,-5,1,-1%,-1.9%,?
Cn1c(C(=O)NCCOc2ccccc2Cl)cc(=O)n(C)c1=O,-2.9,23%,28,1,6%,.,-27%[15.4 µM]
COc1ccc(N(C(=O)c2cccnc2)S(=O)(=O)c2ccc3c4c(cccc24)C(=O)N3C)cc1,3.1,-7%,-7,0,?,-22%,0%
Cc1cccc(NC(=O)COC(=O)C2C3CC4OC(=O)C2C4C3)c1C (stereo not given),-0.6,10%,1,-8,-1%,.,-12%
CN1CCC(=NNC(=O)c2ccco2)CC1,-5.2,-10%,-2,7,6%,0.0%,-9%
CCCOC(=O)c1cccc(Nc2nc(-c3cccnc3)nc3ccccc23)c1,3.2,?,?,-10,?,.,14%
O=c1c2ccccc2[nH]c(=S)n1-c1cccc(S(=O)(=O)N2CCCC2)c1,-0.9,24%,0,14,-8%,.,7%[15.4 µM]
CC(OC(=O)CSCC(=O)Nc1ccc(Cl)cc1)C(=O)N(C)Cc1ccccc1 (stereo not given),.,.,.,25,-24%,.,-11%[15.4 µM]
Fc1ccc(-c2nnc(-c3ccc4ccccc4c3)o2)cc1,.,.,.,-13,-6%,-1.0%,1%[15.4 µM]
Cc1ccc2sc(=O)[nH]c2c1,6.5,4%,16,15,-10%,0.0%,-2%
COc1ccc(S(=O)(=O)Nc2cc3c4c(c2)CC(=O)N4CCC3)cc1OC,.,.,.,-7,.,-1.6%,8%
O=C(CCC1CCCC1)Nc1ccc(C(=O)NCc2cccnc2)cc1,-0.4,3%,-12,-10,4%,-0.3%,38%
Cc1onc(-c2c(Cl)cccc2Cl)c1C(N)=O,-0.1,-4%,-1,7,6%,0.9%,29%
Cn1c(=O)oc2cc(S(=O)(=O)N3CCC(C(=O)Nc4ccc(OC(F)(F)F)cc4)CC3)ccc21,4.3,-14%,20,-7,13%,0.9%,4%
CC(OC(=O)c1cc(=O)[nH]c2ccccc12)C(=O)NCc1ccccc1 (stereo not given),.,.,-5,-6,20%,.,9%[15.4 µM]
O=c1[nH]cc(S(=O)(=O)N2CCCc3ccccc32)c(=O)[nH]1,.,.,22,-8,4%,-3.4%,16%[15.4 µM]
O=C(O)c1ccc(N=C2c3ccccc3-c3ccccc32)cc1,.,.,.,-15,?,.,19%
Cc1ccc(S(=O)(=O)N2CCOCC2)cc1C(=O)NCCCN1CCCC1=O,.,.,.,-5,.,1.0%,13%
O=C(CSc1n[nH]c(-c2ccccc2)n1)N1CCCC1,0.5,10%,7,3,3%,.,10%
COC(=O)CSc1ncc(S(=O)(=O)c2ccccc2)c(=O)[nH]1,-6.3,8%,?,-19,3%,.,-12%[15.4 µM]
O=C(Nc1ccc2c(c1)CCC2)c1ccc(Cl)nc1,3.4,11%,-5,-2,-4%,-3.9%,-49%[inhibitor]
Cn1c(=O)c2c(-c3ccccc3)n(Cc3cccnc3)cc2n(C)c1=O,1.6,-4%,-5,-10,1%,-8.5%,0%
CS(=O)(=O)Nc1cccc(-c2cnc3ccccc3n2)c1,-5.5,-19%,1,-11,9%,.,7%
O=C(O)c1ccc(N2C(=O)Nc3ccccc3N2O)cc1,1.9,-27%,0,0,-11%,-1.3%,20%
CCN(CC)CCN(Cc1cc2cccc(C)c2[nH]c1=O)C(=S)Nc1ccccc1,-0.7,0%,-20,-13,-6%,.,0%[15.4 µM]
Cn1c(Cc2cccs2)n[nH]c1=S,0.4,10%,-1,7,-6%,0.8%,-34%[inhibitor]
Cc1sc(NC(=O)CSc2nnnn2C)c(C#N)c1C,7.7,19%,2,-28,-3%,1.2%,-16%

# Molecules above with an aryl methoxy group:
molecule,Menin-MLL FL inh,Sfp inh,TRPV1 PAM,TRPML1 inh,gsp antag,ClpP mod,gsp agonist
COc1ccc(CN(CC2CCCO2)S(=O)(=O)c2ccc(C(=O)O)cc2)cc1OC (stereo not given),1.6,1%,0,-3,-4%,0.7%,-2%
COc1ccc(N(C(=O)c2cccnc2)S(=O)(=O)c2ccc3c4c(cccc24)C(=O)N3C)cc1,3.1,-7%,-7,0,?,-22%,0%
COc1ccc(S(=O)(=O)Nc2cc3c4c(c2)CC(=O)N4CCC3)cc1OC,.,.,.,-7,.,-1.6%,8%

# Next records:
molecule,Menin-MLL FL inh,Sfp inh,TRPV1 PAM,TRPML1 inh,gsp antag,ClpP mod,gsp agonist
CCCN1CNC(=S)N(c2ccccc2OCC)C1,2.8,20%,-1,18,14%,-9.2%,4%
Cc1cc(C)nc(SCCS(=O)Cc2ccc(Cl)cc2)n1 (stereo not given),4.3,-2%,?,-13,4%,0.0%,1%
COc1cc(CC(NC(C)=O)C(=O)NC2CCN(C(=O)Nc3ccc(C)cc3)CC2)cc(OC)c1 (stereo not given),.,8%,4,1,8%,1.6%,?
O=C(NCCC1=CCCCC1)NC12CC3CC(CC(C3)C1)C2,-2.5,-6%,-24,25,0%,-1.3%,4%
O=C(CCN1CCOCC1)c1ccc(N2CCCCC2)cc1,.,.,-15,-12,11%,-3.1%,?
C=CCC1(CC=C)CC(Cc2cnccn2)N(C(=O)OC(C)(C)C)C1 (stereo not given),.,.,.,16,.,-2.1%,?
COc1ccc(NC(=O)CS(=O)(=O)Cc2ccccc2)c([N+](=O)[O-])c1,0.4,13%,-7,1,8%,-3.5%,-17%[15.4 µM]
Cc1ccc(C(=O)Cn2cnc3ccccc3c2=O)cc1C,1.0,-2%,5,-10,-8%,-1.6%,-30%
Cc1ccc(NC(=O)NNC(=O)COc2ccc3ccccc3c2)cc1,.,4%,1,29,-8%,-5.4%,0%
O=C(OCC(=O)N1CCN(c2ccccc2)CC1)C1CCCN1S(=O)(=O)c1ccc(Cl)cc1 (stereo not given),.,.,18,-11,-8%,-0.7%,-7%

# Three entries from above, ordered by their value in Menin-MLL FL inh, largest number first.
Structure | Menin-MLL FL inh
CCCN1CNC(=S)N(c2ccccc2OCC)C1 | 2.8
Cc1ccc(C(=O)Cn2cnc3ccccc3c2=O)cc1C | 1.0
COc1ccc(NC(=O)CS(=O)(=O)Cc2ccccc2)c([N+](=O)[O-])c1 | 0.4

# Back to the main list with the three entries that preceded the break.
molecule,Menin-MLL FL inh,Sfp inh,TRPV1 PAM,TRPML1 inh,gsp antag,ClpP mod,gsp agonist
Cc1ccc(C(=O)Cn2cnc3ccccc3c2=O)cc1C,1.0,-2%,5,-10,-8%,-1.6%,-30%
Cc1ccc(NC(=O)NNC(=O)COc2ccc3ccccc3c2)cc1,.,4%,1,29,-8%,-5.4%,0%
O=C(OCC(=O)N1CCN(c2ccccc2)CC1)C1CCCN1S(=O)(=O)c1ccc(Cl)cc1 (stereo not given),.,.,18,-11,-8%,-0.7%,-7%
NNC(=O)c1ccc(-c2ccccc2F)cc1,5.8,-2%,.,-2,0%,0.4%,0%
O=C(NC1CCCCC1)C(c1ccncc1)N(C(=O)Cc1cccs1)c1ccccc1 (stereo not given),-2.2,26%,-2,5,4%,.,-10%[15.4 µM]
O=C(C#Cc1ccccc1)Nc1cccc(F)c1,-1.0,?,-20,-6,6%,-3.7%,-13%[15.4 µM]
Cc1ccc(NC(=O)c2noc3c2CCCCC3)cc1,3.4,17%,-15,-3,8%,-17%,-23%
CC1CCN(CCc2nc3cc(NC(=O)NC4CCCCC4)ccc3n2C)CC1,-2.9,17%,1,-4,10%,-7.9%,?
COc1ccc(-n2c(N)cc(=O)nc2SCC(=O)NC2CCCCC2)cc1,.,.,.,-9,5%,-8.9%,-29%[15.4 µM]
O=C(CP(=O)(O)CC(=O)c1ccccc1)c1ccccc1,-1.2,24%,3,22,4%,.,-2%
O=C(NC1CCCC1)C(c1ccncc1)N(C(=O)Cc1cccs1)c1ccc(F)cc1 (stereo not given),-7.3,22%,-3,-4,2%,1.1%,-1%[15.4 µM]
O=Cc1cccc2ccc3cccc(C(=O)O)c3c12,.,.,.,7,1%,.,26%
COc1ccc(-n2ncc3c2CC(C)(C)CC3NC(=O)CCn2cncn2)cc1 (stereo not given),.,15%,-4,-8,-12%,1.0%,-7%
Cc1ccc(C(=O)N2CCCCC2)cc1NC1=C(Cl)C(=O)N(Cc2ccccc2)C1=O,.,.,9,7,-18%,1.5%,-11%
Cc1cc(C)c(S(=O)(=O)c2cccc(C(F)(F)F)c2)c(=O)[nH]1,3.5,4%,3,2,11%,0.0%,5%[15.4 µM]
